Assay outcomes as filed in PubChem.
HPGD block: inhibitors of human 15-hydroxyprostaglandin dehydrogenase (HPGD). actives 4.3% (n = 150,000). Potency, µM, for inactives: top-dose activity change, negative = inhibition, actives largely listed as inhibitors. AID 894. P15428. purified HPGD, NADH fluorescence kinetic, PGE2 substrate; active = well fitted inhibition curve with a large enough effect (not every such curve was filed as active); inconclusive = small, poorly fitted or top-dose-only effect, or another doubt; inactive = no such curve, though single readings can be large or run the other way;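 also: top concentration of the series not given in the record; plate controls included wells without enzyme; inactives centre near -10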
Target sequence (P15428 whole entry, looked up): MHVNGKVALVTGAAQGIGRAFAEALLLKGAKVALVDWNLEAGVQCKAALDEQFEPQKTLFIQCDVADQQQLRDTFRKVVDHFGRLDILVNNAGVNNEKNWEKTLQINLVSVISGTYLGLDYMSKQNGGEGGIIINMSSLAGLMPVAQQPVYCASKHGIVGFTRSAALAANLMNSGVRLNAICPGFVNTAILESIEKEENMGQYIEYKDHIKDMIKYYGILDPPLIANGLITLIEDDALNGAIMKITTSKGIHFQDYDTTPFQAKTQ
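NADH formation kinetics: reaction with 30 uM PGE2 and 1 mM NAD+ (final), 20 nM enzyme, Tris-HCl pH 8 with Tween 20, after 15 min compound preincubation at room temperature. Fluorescence change, last versus first of five reads.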
Active calls of the source: *; & = joins results of further samples. % is scaled to controls: 0 for no effect and ±100 for the full control effect; potency is read from the fitted curve at half-maximal effect. Some of the compounds tested. The share of hits here may be higher or lower than overall.

Screening COc1cc(C(N)=O)cc(Cl)c1OCc1ccccc1 returned HPGD block -8%.
For O=C(C1=NN(c2ccccc2)C2C(=O)N(c3ccc(Cl)cc3)C(=O)C12)c1ccccc1 (stereo not drawn) the results were HPGD block -14%.
`O=C(Nc1ccccc1-c1ccccc1)NC1CCN(C(=O)N2CCOCC2)CC1` gave HPGD block -9%.
`CC1=C(C(=O)OC(C)C)C(c2cccs2)NC(=S)N1` (stereo not drawn) gave HPGD block -9%.
CSc1nsc(/C=C/Nc2ccc(C)cc2)c1C#N was read as HPGD block 14µM*.
`O=c1ccc2cc(O)c(O)cc2o1` gave HPGD block inconclusive.
`COc1cc(S(=O)(=O)Nc2ccccc2)ccc1N=Cc1c(C)[nH]n(-c2ccc(C)cc2)c1=O` gave HPGD block -19%.
CCOC(=O)C1=C(c2ccccc2)OC(N)=C(C#N)C1c1cccs1 (stereo not drawn) was read as HPGD block -23%.
For O=C(O)c1cc(Nc2nc(N3CCOCC3)nc(N3CCOCC3)n2)ccc1Cl the results were HPGD block 2%.
COC(=O)[C@H](Cc1ccccc1)NC(=O)Nc1ccc(C)cc1 was read as HPGD block -23%.
Cc1ccc(S(=O)(=O)N2CCCC2C(=O)OCc2ccco2)cc1 (stereo not drawn) was read as HPGD block -14%.
Screening CCCc1[nH]nc2c1C(c1ccc(OC(=O)N3CCOCC3)cc1)C(C#N)=C(N)O2 (stereo not drawn) returned HPGD block 7%.
Screening COCC(C)NC(=O)c1cccc(Cl)c1 (stereo not drawn) returned HPGD block inconclusive.
OCc1c[nH]c2ccccc12 was read as HPGD block -4%&-4%.
For COCCCNC(=S)N1CCN(c2ccc([N+](=O)[O-])cc2)CC1 the results were HPGD block -8%.
CCNC(=S)NNC(=O)Cc1ccccc1 was read as HPGD block -4%.
COc1ccc(N2C(=O)NC3CC2(C)Oc2ccccc23)cc1OC (stereo not drawn) was read as HPGD block -4%.
c1ccc(-n2nnnc2-c2cnc(-c3cccnc3)nc2-c2cccs2)cc1 was read as HPGD block -25%.
For CCOC(=O)c1cc2c(=O)n3cccc(C)c3nc2n(C)c1=N the results were HPGD block inconclusive.
For N#Cc1nc(-c2ccco2)oc1NCCc1ccccc1 the results were HPGD block inconclusive.
Screening Cc1ccc(S(=O)(=O)NCCOc2nc(N(C)C)nc(N3CCOCC3)n2)cc1 returned HPGD block -8%.
Screening CN(Cc1ccccc1)C(=O)COC(=O)C1=NNC(=O)CC1 returned HPGD block -1%.
Cc1cccc(N=C2NC(=O)S/C2=C\c2ccco2)c1 was read as HPGD block -10%.
For CCOc1cc(CNc2ccc3[nH]c(=O)[nH]c3c2)ccc1OCC(=O)NC(C)(C)C the results were HPGD block inconclusive.
Screening C/C(=N\OC(=O)c1ccc(Br)cc1)c1ccccn1 returned HPGD block -18%.
For COC(=O)c1ccc2c(c1O)C(=O)c1ccccc1C2=O the results were HPGD block -17%.
Screening COC(=O)CSc1nc(C)c(Oc2ccccc2)c(=O)[nH]1 returned HPGD block -19%.
Cc1ccc(SCCNS(=O)(=O)c2ccc3c(c2)OCCO3)cc1 was read as HPGD block -10%.
CC(C)Cn1c(N)c(C(=O)COC(=O)c2cc(C3CC3)nc3ccccc23)c(=O)n(C)c1=O was read as HPGD block inconclusive.
O=C(CSc1ccc2c(c1)OCCO2)Nc1ccc(Cl)cn1 was read as HPGD block -9%.

Two entries drawn at random from those above:
Screening Cc1ccc(S(=O)(=O)NCCOc2nc(N(C)C)nc(N3CCOCC3)n2)cc1 returned HPGD block -8%.
Screening CN(Cc1ccccc1)C(=O)COC(=O)C1=NNC(=O)CC1 returned HPGD block -1%.

Further entries.
Screening O=c1c2cccnc2[nH]c(=S)n1Cc1ccccc1 returned HPGD block -12%.
COc1ccc(N2CCN(C(=O)CCc3nc(-c4ccc(C)cc4)no3)CC2)cc1 was read as HPGD block -9%.
`CCOC(=O)c1ccc(-c2ccc(/C=C(\C#N)C(=O)NCC3CCCO3)o2)cc1` (stereo not drawn) gave HPGD block inconclusive.
For Cc1ccc(CNC(=O)[C@H]2C[C@@H]2[C@H](NP(=O)(c2ccccc2)c2ccccc2)c2ccccc2)o1 the results were HPGD block inconclusive.
`c1ccc(NCc2nc3ccccc3n2CCOc2ccccc2)cc1` gave HPGD block 2%.
Screening Cc1ccc(CN2C(=O)CCC2C(=O)NCc2ccc(F)cc2)cc1 (stereo not drawn) returned HPGD block 1%.
`CCSc1nc2ccccc2n1S(=O)(=O)c1ccccc1` gave HPGD block -22%.
Screening O=C1Nc2ccccc2C12NCCc1c2[nH]c2ccccc12 (stereo not drawn) returned HPGD block -3%.
`CCOC(=O)CCC(=O)N1CCOCCOCCN(C(=O)CCC(=O)OCC)CCOCC1` gave HPGD block -1%.
Screening CC1=CC=CC2=NC(=O)CC(C)(C(=O)N(CC(=O)NC3CCCC3)c3ccccc3C)N12 (stereo not drawn) returned HPGD block inconclusive.
`Cc1c(C(=O)OC(C)C)sc(N)c1C(=O)OC(C)C` gave HPGD block 22µM*.
For O=C(CC12CC3CC(CC(C3)C1)C2)Nc1ccc2c(c1)COC2=O the results were HPGD block -13%.
For CNC(=O)NC1CCCCc2sccc21 (stereo not drawn) the results were HPGD block 6%.
O=C(O)Cn1c(SCCOc2ccccc2)nc2ccccc21 was read as HPGD block -1%.
Screening CCCCC/C=C\C/C=C\C/C=C\CCCCC(=O)O returned HPGD block -10%.
`COc1ccc(-n2cnnc2SCC(=O)c2cc(C)n(Cc3cccs3)c2C)cc1` gave HPGD block -9%.
For O=C(NCc1ccco1)c1cc(-c2ccc(Cl)cc2)on1 the results were HPGD block -5%.
Screening CCCCN(CC)S(=O)(=O)N1CCC(C(=O)NCc2ccc(F)cc2)CC1 returned HPGD block -8%.
For CCNC(=O)Nn1c(-c2ccccc2)nc2ccccc2c1=O the results were HPGD block -15%.
For CCCS(=O)(=O)N1CCC(C(=O)c2cccc(C(F)(F)F)c2)CC1 the results were HPGD block -12%.
Cc1ccc(-c2csc(NC(=O)c3cccc(S(=O)(=O)N4CCN(C)CC4)c3)n2)cc1 was read as HPGD block -27%.
Cc1cccc(CSCCNC(=O)COc2ccc(Cl)cc2)c1 was read as HPGD block -1%.
Screening CCOC(=O)c1c(NC(=O)c2cccnc2)sc(C(C)=O)c1C returned HPGD block 13µM*.
For CCCCc1ccc(S(=O)(=O)NCCc2ccncc2)cc1 the results were HPGD block -2%.
For COCCn1c(NCc2ccccc2)nc2c1c(=O)[nH]c(=O)n2C the results were HPGD block 0%.
For CCOc1ccc(NC(=O)c2ccc(F)c(S(=O)(=O)N3CCN(c4ccccn4)CC3)c2)cc1 the results were HPGD block -12%.
`CCCc1cc(C(=O)Nc2ccc(F)cc2F)no1` gave HPGD block -12%.
`O=C(CN1C2CCC1CC(NC(=O)NC1CCCCC1)C2)NC1CC1` (stereo not drawn) gave HPGD block -6%.
For Cc1cccc(-n2nc([N+](=O)[O-])c(=NCc3cccnc3)n2O)c1 the results were HPGD block -11%.
CCCCC(=O)Nc1ccc(NC(=S)NC(=O)c2cccs2)cc1OC was read as HPGD block -11%.

12 structures already listed, sorted by heavy-atom count, rising:
`CCCc1cc(C(=O)Nc2ccc(F)cc2F)no1` gave HPGD block -12%.
Screening CCCCC/C=C\C/C=C\C/C=C\CCCCC(=O)O returned HPGD block -10%.
For O=C(NCc1ccco1)c1cc(-c2ccc(Cl)cc2)on1 the results were HPGD block -5%.
For CCCCc1ccc(S(=O)(=O)NCCc2ccncc2)cc1 the results were HPGD block -2%.
Cc1cccc(CSCCNC(=O)COc2ccc(Cl)cc2)c1 was read as HPGD block -1%.
For CCCS(=O)(=O)N1CCC(C(=O)c2cccc(C(F)(F)F)c2)CC1 the results were HPGD block -12%.
`O=C(CN1C2CCC1CC(NC(=O)NC1CCCCC1)C2)NC1CC1` (stereo not drawn) gave HPGD block -6%.
CCCCC(=O)Nc1ccc(NC(=S)NC(=O)c2cccs2)cc1OC was read as HPGD block -11%.
Screening CCCCN(CC)S(=O)(=O)N1CCC(C(=O)NCc2ccc(F)cc2)CC1 returned HPGD block -8%.
`COc1ccc(-n2cnnc2SCC(=O)c2cc(C)n(Cc3cccs3)c2C)cc1` gave HPGD block -9%.
Cc1ccc(-c2csc(NC(=O)c3cccc(S(=O)(=O)N4CCN(C)CC4)c3)n2)cc1 was read as HPGD block -27%.
For CCOc1ccc(NC(=O)c2ccc(F)c(S(=O)(=O)N3CCN(c4ccccn4)CC3)c2)cc1 the results were HPGD block -12%.

(cont.)
For Cc1ccc(NC(=O)CC2Nc3ccccc3NC2=O)cc1Cl (stereo not drawn) the results were HPGD block inconclusive.
C=CC[C@@](C(C)=O)(C(=O)OC)C(NC(=O)OC(C)(C)C)c1ccccc1 (stereo partly drawn) was read as HPGD block -4%.
Screening O=C(NCc1ccccc1)NC(=O)c1ccncc1 returned HPGD block -4%.
For CCOC(=O)c1c(NC(=O)c2ccc(-n3cnnn3)cc2)sc2c1CCCC2 the results were HPGD block -15%.
Screening CCCNC(=O)CC(NS(=O)(=O)c1ccc(Cl)cc1)c1ccco1 (stereo not drawn) returned HPGD block -3%.
Screening Cc1ccc(C(=O)c2ccccc2C(=O)OCC(=O)NCCc2ccccc2)cc1 returned HPGD block -22%.
O=C1NC2(CCCCCC2)C(=O)N1Cc1ccc([N+](=O)[O-])cc1 was read as HPGD block 2%.
Screening O=C(Nc1ccc2c(c1)OCO2)C1COc2ccccc2O1 (stereo not drawn) returned HPGD block -23%.
`Cc1noc(C)c1-c1ccc2ncnc(N(C)Cc3ccco3)c2c1` gave HPGD block 13µM*.
For COc1cc(/C=N\NC(=O)c2nonc2N)c(OC)cc1Br the results were HPGD block inconclusive.
For Cc1ccc(CS/C(Nc2ccccc2C)=C(\C#N)C(N)=O)c(C)c1 the results were HPGD block -15%.
`COc1ccccc1NC(=S)NC1CCC(CC2CCC(NC(=S)Nc3ccccc3OC)CC2)CC1` (stereo not drawn) gave HPGD block -15%.
O=C(Oc1ccc(-c2nccc(-c3ccccn3)n2)cc1)c1cccc(C(F)(F)F)c1 was read as HPGD block -3%.
`Cn1c(Cc2ccccc2)nnc1SCC(=O)Nc1ccc2c(c1)OCO2` gave HPGD block 2%.
Cc1cc(C)c(C)c(S(=O)(=O)N2CCN(CC(=O)Nc3sccc3C#N)CC2)c1C was read as HPGD block -18%.
FC(F)(F)c1nnc2ccc(NCn3nnc4ccccc43)nn12 was read as HPGD block -30%.
`O=C(CNc1ccccc1)N/N=C/c1c[nH]c2ccccc12` gave HPGD block 0.13µM*.
For CCc1cccc(CC)c1NC(=O)Cn1c(-c2ccccc2Cl)nc2ccccc21 the results were HPGD block -4%.
`CCCCC#Cc1ccccc1CC(=O)Nc1ccccc1` gave HPGD block -7%&-18%.
For Cn1ncc(Cl)c1C(=O)Nc1ccc(Cl)cn1 the results were HPGD block -17%.
Cc1ccc(/C=N/N2CCN(c3ccncc3S(=O)(=O)N3CCCCC3)CC2)cc1 was read as HPGD block -23%.
Screening CCOC(=O)c1cc(C)sc1/N=C/C1C(=O)CCCC1=O returned HPGD block -1%.
For CC(=O)c1cccc(NC(=O)CN2C(=O)NC3(CCCCCCC3)C2=O)c1 the results were HPGD block 4%.
For COc1ccccc1CNC(=O)c1cccs1 the results were HPGD block 16µM*.
For Cc1cc(C)nc(Sc2ccc(/C=C(\C#N)C(N)=O)o2)n1 the results were HPGD block -4%.
Screening Cn1c(C(=O)NC2CCCCC2)cc2c(=O)n(C)c3ccccc3c21 returned HPGD block -23%.
`c1ccc2c(c1)c1ccccc1n2CN1CCOCC1` gave HPGD block -4%.
`COc1ccc(/C=N/NC(=O)c2cc(-c3cccn3C)n[nH]2)cc1OC` gave HPGD block -20%.
O=C(O)CC(C(=O)Nc1cccc(C(F)(F)F)c1)C1CCCO1 (stereo not drawn) was read as HPGD block -9%.
Screening CN1CCN(C(=O)c2ccc(Cl)c(S(=O)(=O)N3CCCCC3)c2)CC1 returned HPGD block -9%.
For CCOC(=O)C(C)CC(C)C(=O)N1CCOCCOCCN(C(=O)C(C)CC(C)C(=O)OCC)CCOCC1 (stereo not drawn) the results were HPGD block -4%.
Screening CN(C)CCC#CC(O)(c1ccccc1)c1ccccc1 returned HPGD block -5%.
`COC(=O)c1cccc(Cn2c(Cl)c(/C=N/NC(=O)c3ccccc3Cl)sc2=O)c1` gave HPGD block -27%.
Screening COC(=O)c1cc(Cl)c(NC(=O)c2ccc(C(C)(C)C)cc2)cc1OC returned HPGD block inconclusive.
For Cc1ccc(-n2c(-c3nn(C)cc3Cl)n[nH]c2=S)cc1 the results were HPGD block -17%.
For O=C(CSCCO)Nc1ccc(C2CCCCC2)cc1 the results were HPGD block 4.5µM*.
CCCCN1CNC(=S)N(CCc2ccccc2)C1 was read as HPGD block 2%.
CC1Oc2ccccc2N(CC(=O)NCC2CCCO2)C1=O (stereo not drawn) was read as HPGD block -6%.
`CN(c1ccccc1)S(=O)(=O)c1ccc(C(=O)Nc2nccs2)cc1` gave HPGD block -11%.
`O=C(OCc1nc2ccccc2s1)C1CCN(S(=O)(=O)c2cccs2)CC1` gave HPGD block -18%.
Screening CCOP(=O)(O)c1ccccc1OCCCCCOc1ccccc1P(=O)(O)OCC returned HPGD block -3%.
Screening Cc1noc(C)c1C(=O)N1CCC[C@@]2(CCN(Cc3nccs3)C2)C1 returned HPGD block -3%.
`O=C(COC(=O)c1cc(Cl)nc2ccccc12)c1ccc(Cl)cc1` gave HPGD block inconclusive.
O=C(Cc1ccc(F)cc1)Oc1ccc(C(=S)N2CCCC2)cc1 was read as HPGD block -12%.
COc1ccc(-n2c(Cc3cccn3C)nnc2SCC(=O)NCc2ccc(F)cc2)cc1 was read as HPGD block -7%.
For Cc1ccc(NC(=O)c2ccccc2)cc1OC(=O)c1ccccc1 the results were HPGD block -15%.
For Oc1[nH]c(=S)sc1/C=C1\C(c2ccccc2)=Nc2ccccc21 the results were HPGD block inconclusive.
For CCSc1nc2sc3c(c2c(=O)n1C1CCCCC1)CCN(C)C3 the results were HPGD block -17%.
